# PrP 5UTR inh: suppresses PrP 5' UTR mRNA reporter expression; inhibition, % (no concentration beside the values); AID 488862; actives 0.35% (n = 340,000); cell-based PrP 5' UTR mRNA reporter, plate reader;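 active = every replicate at 50% or more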;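 note: 0 = median of the neutral control wells; tested in H4 reporter cells; numbers are from one replicate; inactives centre near -14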
# BJeLR viability: kills HRASV12-expressing BJeLR cells; inhibition, % (no concentration beside the values); BJeLR (HRASV12) viability, CellTiter-Glo ATP luminescence, 48 h; reference of the scale not given here; AID 1554; actives 0.17% (n = 300,000);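 active = replicate mean above 50%; inconclusive = above 50% but judged a plate artefact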;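 note: 50 nL library stock added to about 25 µL; numbers are from one replicate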
# RN4220 kill: kills Staphylococcus aureus RN4220; inhibition, % (no concentration beside the values); actives 0.33% (n = 330,000); AID 1259311; S. aureus RN4220 growth, OD600, 16 h;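 active = z-score of -3 or lower and OD600 up to 0.18 on both plates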;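 note: plate controls were untreated cells for no effect and reference antibiotic for full effect; stock transfer was 100 nL into about 80 µL; one replicate is shown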
# ugtP null kill: growth inhibition of S. aureus ugtP deletion strain | S. aureus RN4220 ugtP deletion, OD600 growth, 16 h; some inactives read as strong as hits | growth inhibition, % (test concentration not listed) | actives 0.54% (n = 330,000);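 active = z-score under -3 and OD600 up to 0.15 on both plates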;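 note: plate controls were untreated wells for no effect and antibiotic for full effect; wells of about 80 µL received 100 nL stock; the first replicate is given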
# Mtb hypoxia rep: Mtb hypoxia fluorescent reporter inhibition; AID 1159583; M. tuberculosis hypoxia-regulated fluorescent reporter, fluorescence; fluorescence inhibition, % (test concentration not listed); actives 0.1% (n = 300,000);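 active = 35 to 45% if threefold the growth effect, above 45% if 1.5-fold the growth effect; inactive = the rest, general growth blockers included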;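 note: wells of about 50 µL received 100 nL stock; 0% = vehicle wells and 100% = reference inhibitor wells; whole bacteria with a GFP reporter of the hypoxia response; strong numbers were not always called active; many hits fall short of the cut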
# Bead autofluor: counter-screen for toxin protease inhibitors: compound fluorescence; compound autofluorescence counterscreen, microsphere flow cytometry; stronger effect = higher value; fluorescence intensity (concentration not given with the values); actives 3.1% (n = 360,000);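 active = at least 3 SD above the mean of all compounds, about 16000 in these data; inconclusive = too few beads counted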;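 note: 100 nL of 1 mM stock went into each well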
# Mtb hypoxia rep growth: second read-out of Mtb hypoxia rep, no call of its own (marks repeat the call); growth inhibition, %; measured here: M. tuberculosis growth (absorbance);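 0% = vehicle and 100% = reference antibiotic; read after six days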
# Active calls of the source: *; ? = inconclusive; nt = no result given.
no.	canonical_smiles	RN4220 kill	PrP 5UTR inh	ugtP null kill	Bead autofluor	BJeLR viability	Mtb hypoxia rep growth	Mtb hypoxia rep
1	Cc1ccc(NC(=O)c2cccc(N3C(=O)C4C5C=CC(C5)C4C3=O)c2)cc1C (configuration not stated)	1.5	-20	2	5635	2	6	4
2	CC(=O)C1=C(c2ccccc2)NC(=O)NC1c1ccc(O)c(O)c1 (configuration not stated)	2.3	-22	-5	3595	7	8	2
3	Cc1cc(C)c(C(=O)C2OC(=O)C(C)(C)C(=O)C2(C)C)c(C)c1 (configuration not stated)	5.6	-21	6	3004	0	nt	nt
4	Cc1ccc(NS(=O)(=O)c2ccc(-c3cnc(C4CC4)o3)cc2)cc1	7.9	-33	-11	5932	1	-4	6
5	COc1cc(OC)c2c(-c3cccc(-c4ccc(C(C)=O)cc4)c3)cc(=O)oc2c1	2.8	64*	2	4063	nt	2	-8
6	Cc1cccc(N(C)S(=O)(=O)c2nnc(NC(=O)c3ccco3)s2)c1	10	-14	0	5654	-1	5	14
7	COc1ccc(C=NNC(=O)CNC(=O)c2ccc(S(=O)(=O)N3CCOCC3)cc2)c(OC)c1	7.2	nt	2	nt	nt	1	1
8	COc1cc(OC)cc(C(=O)N2CCN(c3ccc(N4CCOCC4)nn3)CC2)c1	-0.6	-15	0	?	-2	-3	-4
9	COc1ccc(Cl)cc1NC(=O)Cn1nnc(C(=O)NCCc2ccc(OC)c(OC)c2)c1N	2.9	-10	12	nt	-4	-9	-12
10	CCOc1ccc(C(C)=NNC(=O)c2nnn(-c3nonc3N)c2-c2cccs2)cc1	3.8	nt	7	nt	nt	4	5
11	CCOC(=O)C1CCN(Cc2ccc(OC)c(C)c2OC)CC1	1.6	-12	6	16792*	2	-5	8
12	O=C(CSc1nc2ccccc2s1)CSc1nc2ccccc2s1	-3.6	-27	2	8021	3	-5	-6
13	Cc1cc2nncn2c(Cc2ccccc2)n1	-2.0	-26	-6	2610	4	nt	nt
14	CCCCc1c(O)nc(SCC(=O)Nc2ccc(C)cc2)n(-c2ccc(OC)cc2)c1=O	1.9	-18	7	5970	-3	5	-8
15	CN1CCN(S(=O)(=O)c2cccc(C(=O)NCc3ccc(Cl)cc3)c2)CC1	5.2	-26	4	4044	8	-1	6
16	O=C(CSCc1ccccc1)Nc1ccccc1C(=O)Nc1ccc(C(=O)O)cc1	2.0	-16	-1	5207	-6	9	-8
17	CN(C)S(=O)(=O)c1ccc(C(=O)OCC(=O)Nc2ccc(OC(F)F)cc2)cc1	-3.9	-22	3	4870	-5	-2	4
18	C=C[C@]12CN(C)C3C4COC(CC41)[C@]1(C(=O)Nc4ccccc41)C32 (some centres not stated)	1.9	nt	0	nt	nt	1	-1
19	COC(=O)c1cccc(-n2c(=O)n(Cc3ccccc3)c(=O)c3[nH]cnc32)c1C	6.5	8	7	2894	-3	3	8
20	COc1cccc(-c2nnc(-c3ccc(C)o3)o2)c1	12	-26	-13	3789	-4	17	16
21	CC1Cc2nc(SCC(=O)Nc3ccc4c(c3)OCO4)n(Cc3ccccc3)c(=O)c2S1 (configuration not stated)	1.1	-8	0	6069	-6	1	-2
22	COCC(C)NC(=O)CSc1nnc(-c2cccc(S(=O)(=O)N3CCCCC3)c2)o1 (configuration not stated)	7.9	16	8	3373	12	3	6
23	CN1CCN(C(=O)c2ccccc2NC(=O)c2cccc(Cl)c2)CC1	2.0	3	0	5706	4	0	4
24	COc1ccc(N(C(=O)CNC(=O)c2ccco2)C(C(=O)NC2CCCC2)c2ccncc2)cc1 (configuration not stated)	1.6	3	2	4098	5	-6	-1
25	CCCSc1nc(C)cc(C)c1S(=O)(=O)c1ccccc1C	-6.9	-5	76	3504	2	nt	nt
26	COc1ccc(NC(=O)/C(=C/c2cccs2)NC(=O)c2ccco2)cc1	3.7	0	8	3172	6	4	2
27	COC(=O)c1cc(-c2ccc(OC)c(OC)c2)on1	4.5	-4	5	4181	-10	nt	nt
28	Cn1c(O)c(C(=Nc2ccccc2)SCc2ccc(Cl)cc2)c(=O)n(C)c1=O	41	-13	24	3831	3	7	11
29	O=[N+]([O-])c1ccc(N2CCCCC2)cc1NCCOc1ccccc1	2.5	-15	-4	2059	8	4	9
30	CCCCc1nnc(NC(=O)c2ccccc2OCc2c(C)noc2C)s1	2.8	-13	2	5859	17	3	1

# Further structures
no.	canonical_smiles	RN4220 kill	PrP 5UTR inh	ugtP null kill	Bead autofluor	BJeLR viability	Mtb hypoxia rep growth	Mtb hypoxia rep
31	Cc1ccc(C(=O)Nc2nc(-c3ccccn3)cs2)s1	19	10	2	4050	nt	8	13
32	Cc1ccc(C)c(OCc2cc(C(=O)NC(c3ccccn3)C(F)(F)F)no2)c1 (configuration not stated)	0.0	0	18	4355	-8	0	1
33	CCOCC(=O)Nc1cc(S(=O)(=O)N2CCOCC2)ccc1N1CCCCC1	6.2	44	3	3106	-3	-2	20
34	COc1ccc(OS(=O)(=O)c2ccc(N3C(=O)CCC3=O)cc2)cc1	nt	-8	nt	3689	-1	nt	nt
35	COc1cccc(N2C(=O)CC(N3CCc4ccccc4C3)C2=O)c1 (configuration not stated)	5.6	5	6	3364	-7	3	4
36	CC(C)NC(=O)Nc1n[nH]c(Nc2ccc(Cl)cc2)n1	3.4	-39	-1	3848	-7	4	-1
37	COc1ccc(C=O)cc1C1=CC(=O)CC(c2ccc(Cl)cc2)C1 (configuration not stated)	-4.0	nt	-5	nt	nt	0	-1
38	Cc1cc(NC(=O)Cc2ccsc2)ccc1Br	-6.8	-47	-10	4023	8	-5	0
39	O=C(Nc1cccc(S(=O)(=O)N2CCCCC2)c1)c1cc(=O)[nH]c2ccccc12	0.4	-12	-3	3876	nt	8	4
40	CC(C)CN(CC(C)C)C(=O)C12CCC(C)(C(=O)O1)C2(C)C (configuration not stated)	1.1	-16	4	3774	-3	6	3
41	COc1ccc(OCc2cc(C(=O)NC(C)Cc3ccccn3)no2)c(Cl)c1 (configuration not stated)	4.5	-11	4	5542	-3	-2	5
42	Cn1nnnc1SCC(=O)N1N=C(c2cccs2)CC1c1cccs1 (configuration not stated)	7.3	-9	3	3904	nt	4	1
43	O=C(CN1C(=O)NC2(CCc3ccccc32)C1=O)NCC(=O)Nc1ccc(F)cc1 (configuration not stated)	4.6	-9	4	3695	nt	1	6
44	c1cncc(-c2noc(CC3CCCCC3)n2)c1	4.6	-30	3	3286	-5	nt	nt
45	CS(=O)(=O)c1ccccc1C(=O)N(CCc1ccccc1)Cc1ccccc1	9.9	-1	9	4306	-2	-1	-1
46	O=C(NCCCn1ccnc1)c1ccc(Br)o1	7.6	-18	14	7269	4	-5	9
47	Cc1ccc(NC(=O)CN(C)C(=O)c2nn(C)c(=O)c3ccccc23)cc1	11	-89	4	4705	-7	11	2
48	Clc1ccc(OCCOCCNCc2ccccc2)cc1Cl	-2.7	-8	-14	4363	-9	2	7
49	CCOC(=O)CS(=O)(=O)c1ccccc1	0.6	-10	1	3568	4	-2	12
50	CCCCCC(=O)N1CC2(CC(c3cccc(NC(=O)[C@@H]4CCC(=O)N4)c3)=NO2)C[C@@H]1C(N)=O (some centres not stated)	nt	-22	nt	4124	5	nt	nt
51	O=C(Nc1cccc(-c2cn3ccccc3n2)c1)C1CC1	1.8	-42	4	11208	-3	9	8
52	CC(/C=C1\SC(=S)N(CCC(=O)Nc2ccc(O)cc2)C1=O)=C\c1ccccc1	10	-24	9	5673	-11	16	7
53	CCC(C(=O)NC1CCCCCC1)n1nc(C)c2c(C)n(-c3ccccc3)nc2c1=O (configuration not stated)	-0.6	2	1	5642	-3	2	0
54	CCCc1nc2oc3c(NCC(C)O)ncnc3c2c2c1CCCC2 (configuration not stated)	2.4	nt	9	6457	-2	9	1
55	CCn1c(=O)cc(OCC(=O)NCc2ccc(C)o2)c2ccccc21	1.7	-26	3	8758	-29	7	8
56	COc1cccc(/C=N/NC(=O)c2ccc(=O)n(C)c2)c1O	nt	12	nt	2540	-13	nt	nt
57	NCCCCC1NC(=O)C(CCC(=O)O)NC(=O)c2cc([N+](=O)[O-])cc(I)c2NCCC(C(N)=O)NC1=O (configuration not stated)	3.5	nt	-8	nt	nt	0	11
58	CCN(CC)S(=O)(=O)c1cccc(C(=O)Nc2cc3oc4ccccc4c3cc2OC)c1	2.3	-92	0	11690	3	4	3
59	CCCc1cc(=O)[nH]c(SCC(=O)OCc2ccccc2)n1	6.3	-17	-3	2480	-1	6	5
60	OC(COCC1COc2ccccc2O1)CN1CCN(c2ccc(F)cc2)CC1 (configuration not stated)	5.9	-12	6	2489	-9	7	15

# Filtered by structure, the compounds so far containing a COOH group.
no.	canonical_smiles	RN4220 kill	PrP 5UTR inh	ugtP null kill	Bead autofluor	BJeLR viability	Mtb hypoxia rep growth	Mtb hypoxia rep
16	O=C(CSCc1ccccc1)Nc1ccccc1C(=O)Nc1ccc(C(=O)O)cc1	2.0	-16	-1	5207	-6	9	-8
57	NCCCCC1NC(=O)C(CCC(=O)O)NC(=O)c2cc([N+](=O)[O-])cc(I)c2NCCC(C(N)=O)NC1=O (configuration not stated)	3.5	nt	-8	nt	nt	0	11

# Remaining list, next part.
no.	canonical_smiles	RN4220 kill	PrP 5UTR inh	ugtP null kill	Bead autofluor	BJeLR viability	Mtb hypoxia rep growth	Mtb hypoxia rep
61	CCOC(=O)c1cn(-c2ccccc2)nc1-c1cccnc1	2.5	4	-11	10391	-2	1	-8
62	CCSc1nc2c(cnn2-c2ccc(C)c(C)c2)c(=O)[nH]1	3.2	-19	9	5753	5	0	8
63	CCN(CC)c1nc(Oc2ccc(C(=O)NN)cc2)nc(Oc2ccc(C(=O)NN)cc2)n1	6.1	-13	11	4013	-7	4	9
64	CCOc1ccccc1CN1CCNC(=O)C1CC(=O)NCc1nc(C)cs1 (configuration not stated)	1.6	-10	1	6199	-3	17	0
65	Cc1c(Br)c(C(F)(F)F)nn1CC(=O)N1CCCC1	2.2	-11	2	7760	2	8	6
66	O=C(O)C1C2C=CC(C2)C1C(=O)NC1CCN(Cc2ccccc2)CC1 (configuration not stated)	0.1	-14	0	20434*	6	8	4
67	O=C(Cn1cc2c(n1)CCCC2)NCCCN1CCCC1	2.0	-8	7	6337	-5	nt	nt
68	Cc1cc(C)nc(NN=Cc2cn[nH]c2-c2ccc(F)cc2)n1	-3.0	nt	8	nt	nt	6	-7
69	CCn1c(C(=O)O)c(CC(=O)Nc2ccc(Br)cc2C)c2ccccc21	11	-9	3	3857	7	-3	-4
70	Cc1cc(C)cc(-n2nc(C)cc2N)c1	7.2	-9	15	16680*	-6	5	7
71	CC1=CC(C)(C)Nc2ccc(OC(=O)CCN3C(=O)c4ccccc4C3=O)cc21	-3.4	-16	-7	2940	-7	3	-1
72	COC(=O)c1cc(-c2c(C)oc3cc(OC)ccc3c2=O)c(C)o1	2.8	5	-3	9105	nt	2	3
73	CC(=O)C1(O)C(C)CC2C3CCC4CC(O)CCC4(C)C3=CCC21C (configuration not stated)	6.9	-32	6	10039	-2	3	7
74	CCCn1ncc(CN2CCN(Cc3ccc(C)o3)C(CCO)C2)c1C (configuration not stated)	4.3	-84	10	3361	-8	7	15
75	CS(=O)(=O)N(Cc1ccccc1)c1ccc(C(=O)Nc2ccccc2Sc2ccccc2)cc1	2.8	-1	4	2480	-5	6	8
76	CC(=O)Nc1ccc(Nc2nnc(-c3ccc(C)c(S(N)(=O)=O)c3)c3ccccc23)cc1	-3.0	-20	1	3419	-5	0	-3
77	Cc1cc(C(=O)OCC(=O)c2ccc3c(c2)NC(=O)CO3)c2ccccc2n1	7.6	-14	-21	12380	7	0	6
78	Cc1c(C(=O)NC(C)C)sc2ncn(CC(=O)N3CCC(C)CC3)c(=O)c12	3.7	-9	8	19793*	6	6	4
79	O=C(Nc1cccc(F)c1)/C(=C\c1ccco1)NC(=O)c1ccco1	0.3	-11	2	4352	4	1	1
80	CC(OC(=O)c1cccnc1)C(=O)Nc1ccc2c(c1)OCO2 (configuration not stated)	2.5	-28	2	3222	2	2	3
81	CCN(CC)c1ccc(C=Nc2sc3c(c2C#N)C2CCN3CC2)c(O)c1	-5.2	nt	4	nt	nt	5	9

# Of the compounds above, these have a CF3 group.
no.	canonical_smiles	RN4220 kill	PrP 5UTR inh	ugtP null kill	Bead autofluor	BJeLR viability	Mtb hypoxia rep growth	Mtb hypoxia rep
32	Cc1ccc(C)c(OCc2cc(C(=O)NC(c3ccccn3)C(F)(F)F)no2)c1 (configuration not stated)	0.0	0	18	4355	-8	0	1
65	Cc1c(Br)c(C(F)(F)F)nn1CC(=O)N1CCCC1	2.2	-11	2	7760	2	8	6
